# AID504770: growth inhibition of E. coli YBA685, primary screen, V. cholerae RctB inhibitors | 0.27% of 130,000 active | E. coli YBA685 rctB-dependent plasmid, OD600 growth, 3 h; stronger effect = lower value | z-score (concentration not given with the values);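 active = z-score under -2 on both plates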;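 note: wells of about 30 µL received 100 nL stock; score is relative to mean and SD of the test wells; the first replicate is given; strong numbers were not always called active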
# Ba CapD inh: Bacillus anthracis CapD inhibitors, primary screen, biochemical, fluorescence intensity; CapD gamma-glutamyltranspeptidase (Bacillus anthracis Ames Ancestor); purified CapD enzyme, fluorescence intensity read-out; stronger effect = lower value; some hits fall short of the stated cut; z-score (no concentration beside the values); 0.23% of 140,000 active;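 active = z-score under -4 in either of two replicates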;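 note: stock transfer was 100 nL into about 40 µL; score is relative to mean and spread of the plate; one replicate is shown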
# * hit, by the source's call; i = inactive; x = not tested or not shown.
SMILES,AID504770,Ba CapD inh
O=C(CCCn1c(=O)c2cccn2c2ccccc21)NCC1CCCO1 (stereo not given),-0.5,0.44
CCOc1cccc(C(=O)Nc2cc(-c3nc4ccccc4s3)ccc2Cl)c1,x,0.135
N#C/C(=N\Nc1ccccc1Cl)S(=O)(=O)c1ccc(Cl)cc1,x,-2.41
O=C(OC1CCOC1=O)C1CCN(S(=O)(=O)c2ccccc2)CC1 (stereo not given),-0.55,x
S=C(NCC1CCCO1)SCc1cn2cccnc2n1 (stereo not given),-0.65,x
NCCC(=O)N1CCCC1,-1.35,x
Cc1cc(N2CCN(c3ccccc3)CC2)nc2cc(Cl)ccc12,-0.3,3.99
O=S(=O)(c1ccc(N(C(F)F)S(=O)(=O)c2ccc(Cl)cc2)cc1)N1CCOCC1,1.7,0.09
COc1cccc(CNC(C)(C)CO)c1OCc1ccc(Cl)cc1,0.2,-0.415
O=C(O)c1cccc(Nc2nc(-c3ccccc3)c3ccccc3n2)c1,-0.25,0.3
COc1ccc2c(c1)O/C(=C\c1cccc(OC(=O)N(C)C)c1)C2=O,-0.15,x
CC(C)N1C(=O)C2C(c3ccccc3O)NC(C)(C(=O)O)C2C1=O (stereo not given),-1.3,-0.425
Brc1c(-c2ccccc2)nc2n1-c1ccccc1C2,0.3,x
O=C(COc1c(-c2ccccc2)oc2ccccc2c1=O)N1CCOCC1,-0.45,x
O=C(c1ccco1)N1CCN(Cc2ccc(F)cc2)CC1,-0.25,-0.075

# Ordered by formula weight (smallest number first): 6 of the compounds above.
SMILES,AID504770,Ba CapD inh
NCCC(=O)N1CCCC1,-1.35,x
S=C(NCC1CCCO1)SCc1cn2cccnc2n1 (stereo not given),-0.65,x
Brc1c(-c2ccccc2)nc2n1-c1ccccc1C2,0.3,x
CC(C)N1C(=O)C2C(c3ccccc3O)NC(C)(C(=O)O)C2C1=O (stereo not given),-1.3,-0.425
Cc1cc(N2CCN(c3ccccc3)CC2)nc2cc(Cl)ccc12,-0.3,3.99
N#C/C(=N\Nc1ccccc1Cl)S(=O)(=O)c1ccc(Cl)cc1,x,-2.41

# Later entries
SMILES,AID504770,Ba CapD inh
CCn1c(=O)c2cc(C(=O)N(C)Cc3ccco3)sc2c2ccccc21,-0.75,0.315
CN1C(=O)/C(=C\c2ccccc2)Sc2ccc(C(=O)NCc3cccs3)cc21,0.4,-6.91*
COc1cc(OC)cc(N2CCN(C(=O)OCc3cccc(OCc4ccccc4)c3)CC2)c1,x,0.035
Cc1nn(-c2ccccc2)c(N)c1C1(O)C(=O)Nc2ccccc21 (stereo not given),0.35,0.1
CC1CCCCN1C(=O)CSc1nnc(NCc2ccccc2)s1 (stereo not given),-0.05,x
N/C(CC(=O)N1CCCC1)=N\O,x,0.47
CC1CN(C(=O)c2cc3c(s2)CCCC3)CC(C)O1 (stereo not given),0.2,x
N#C/C(=C\c1ccc2c(c1)OCO2)C(=O)Nc1ccc(-c2nnc3n2CCCCC3)cc1,-0.2,x
COc1ccc(C(=O)Oc2ccc(/C=N/N=C3\NC(=O)CS3)cc2OC)cc1,1.15,0.22
Oc1ccc(CN2CCCC2)c2cccnc12,0.15,-0.67
CC1SC(=Nc2ccc(S(=O)(=O)N3CCOCC3)cc2)NN=C1C12CC3CC(CC(C3)C1)C2 (stereo not given),-0.4,x
COc1cc(O)c2c(=O)cc(-c3ccccc3)oc2c1,-0.3,0.15
CC(=O)Nc1ccc(Nc2coc3ccc4c(C)cc(=O)oc4c23)cc1,x,-0.6
Cn1ncc(C(C#N)c2nc3ccccc3s2)c(Cl)c1=O (stereo not given),-0.75,x
O=C(CSc1nc2ccccc2c(=O)n1CC1CCC(C(=O)NCc2ccco2)CC1)Nc1ccccc1C(F)(F)F (stereo not given),x,-0.4
O=C(CNc1ncnc2ccccc12)OCCOc1ccccc1,0.35,x
CCCCCNC(=O)c1ccc(-c2ccc(CC)cc2)cc1,x,-0.535
Nc1n[nH]c(C(F)(F)C(F)(F)C(F)(F)F)n1,1.75,x
O=C(CCc1nnc2ccc(NCc3ccco3)nn12)Nc1cccnc1,-0.15,-0.42
Cc1ccc(N2C(=S)N=C(Nc3cccc(C)c3)C23CCCC3)cc1,x,-0.275
CCOC(=O)N/N=C/c1cccs1,x,-0.375
CC(C)c1ccc(/C=C2\Sc3ccccc3C2=O)cc1[N+](=O)[O-],x,-0.465
Cc1nc(-c2cc3cc(Cl)ccc3o2)cs1,-0.4,-0.105
CCS(=O)(=O)N1CCC(c2nc(-c3ccc(C)cc3)no2)CC1,0.95,x
CC1CCCCC1n1cnc2cc(C(=O)O)ccc21 (stereo not given),-0.5,-0.265
CC(C)(Oc1ccccc1Cl)C(=O)O,-0.85,-0.045
Cc1ccc2c(c1)NC(CCC(=O)N1CCN(c3cc(Cl)ccc3C)CC1)=NS2(=O)=O,0.4,-0.145
CC(C)(C)C(=O)NC(c1ccc(Cl)cc1)c1nnc(-c2ccccc2)o1 (stereo not given),0.45,0.26
COC(=O)c1ccc(C2C3=C(CC(c4ccccc4)CC3=O)Nc3ccccc3N2C(C)=O)cc1 (stereo not given),x,9.05
CC(=O)OCC(=O)Nc1nc2c(C)cc(C)cc2s1,-0.35,x
OCCN(CCO)c1ncnc2sc3c(c12)CCCC3,1.95,i
O=c1c(=S)[nH]ccn1-c1ccccc1,-0.6,0.04
O=S(=O)(Cc1noc(-c2ccc(OC(F)(F)F)cc2)n1)c1ccc(F)cc1,-0.4,-0.8
COC(CN=C1COc2cccnc2N1)OC,-0.35,-0.76
CCCCCn1c(SC(C)C(N)=O)nc2ccccc21 (stereo not given),-0.25,x
Cc1cccc(N2CCN(C(=O)c3ccc4c(=O)[nH]c5c(C(=O)NC(C)C)sc(=S)n5c4c3)CC2)c1C,2.8,-3.87*
CCOC(=O)C1=C(C)N=c2s/c(=C/c3cc(Br)cc(OC)c3O)c(=O)n2C1c1ccccc1 (stereo not given),x,0.105
COc1ccc(/C=C2/SC(=S)N(CC(=O)Nc3ccc(F)c(Cl)c3)C2=O)cc1OC,x,-0.33
O=S(=O)(c1ccc2oc(SCc3ccccc3C(F)(F)F)nc2c1)N1CCCCC1,-0.05,x
O=C(c1ccc(=O)n(Cc2ccccc2)n1)N1CCN(c2ccccc2)CC1,-0.2,x
Fc1ccc(SCc2ccc(CSc3ccc(F)cc3)cc2)cc1,x,-0.24
O=C(CCCN1C(=O)c2ccccc2C1=O)N1CCCCCC1,-0.5,-0.525
COc1cc(CC(=O)OC2CCOC2=O)cc(OC)c1OC (stereo not given),0.45,x
CCCc1cc(=O)[nH]c(SCc2cc(=O)oc3cc(C)ccc23)n1,0.2,x
NNC(=O)Cn1cc(Cl)c(=O)c(Cl)c1,x,0.715
O=S(=O)(NC1CCCc2ccccc21)c1ccccc1 (stereo not given),0.35,-0.41
CNC(=O)C1CCN(C(=O)N2CCOc3ccccc32)CC1,2,0.07
CC1=CCC(C(=O)O)(C(=O)NCc2ccccc2)C(c2ccc(Br)cc2)C1 (stereo not given),0.55,0.145
Cc1ccc(C(=O)N2CCN(C(=O)Cc3nc(-c4ccc(Cl)cc4)sc3C)CC2)cc1,x,12.5
CN(C)CCCOc1nn(Cc2ccccc2)c2ccccc12,x,-0.675
Cc1cc(S(=O)(=O)Nc2ccc3oc4c(c3c2)CC(C(C)(C)C)CC4)ccc1Cl (stereo not given),-0.4,-0.2
O=C(Nc1ccc(S(=O)(=O)Nc2nccs2)cc1)c1sc2ccccc2c1Cl,x,1.07
Cc1ccccc1-n1c(=S)sc2c1nc(SCC(=O)NC1CCCCC1)n1c3ccccc3nc21,x,-0.38
NS(=O)(=O)c1ccc(NC(=O)CC2(CC(=O)O)CCCC2)cc1,-0.05,1.02
Cc1c(C(=O)OC(C)C#N)oc2c1ccc1ccccc12 (stereo not given),0.3,x
COc1cc2ncnc(Nc3ccc(Br)cc3)c2cc1OC,x,4.67
Cc1ccc(NC(=S)Nc2ccccn2)cc1C,x,-1.02
Cc1[nH]n(-c2ccccc2)c(=O)c1C(c1cccc(Br)c1)c1c(C)[nH]n(-c2ccccc2)c1=O,x,-0.235
COC(=O)c1n[nH]c2c1CCC2,0.65,x
N#Cc1c(Cl)cccc1NCc1cccs1,1.65,9.43
# The list continues.
SMILES,AID504770,Ba CapD inh
c1ccc2c(c1)OC1OC2Oc2ccccc21,-0.05,0.295
N=C1N=C2N=CC=CN2Cc2ccccc21,-0.15,x
Nc1nonc1-c1noc(-c2ccc(COc3cc(Cl)ccc3Cl)cc2)n1,x,-0.01
O=S(=O)(NCC(c1ccccc1)n1cc(-c2ccccc2)nn1)c1ccc(Cl)cc1 (stereo not given),0.8,3.1
CCC(C)n1ncn(-c2ccc(N3CCN(c4ccc(OC)cc4)CC3)cc2)c1=O (stereo not given),-0.05,1.83
O=C1c2cc(S(=O)(=O)NCCO)cc([N+](=O)[O-])c2-c2c1cc(S(=O)(=O)NCCO)cc2[N+](=O)[O-],x,-0.555
Cc1ccc(-[n+]2cc(NC(=O)/C(C#N)=C/c3ccccc3)on2)cc1,0.85,x
c1ccc(CN2CCCC2)nc1,0.3,x
Nc1c2c(nc3ccccc13)N(C1CCCCC1)CC2,0.8,-0.65
O=C1NN(c2ccccc2)C(=O)/C1=C/c1ccc(SC2CCCCC2)o1,1.3,-0.05
CCc1ccc(N=c2oc3c(C)ncc(CO)c3cc2C(N)=O)cc1,0.3,0.335
CSc1nnnn1-c1ccc(S(=O)(=O)N(C)C)cc1,-0.8,x
Cc1nc(SCN2C(=O)c3ccccc3C2=O)n[nH]1,-0.45,-0.135
Cc1ccc(SCc2nc3ccccc3[nH]2)cc1,1.4,2.87
O=C(Nc1cc(Cl)ccc1Cl)c1cc(S(=O)(=O)N2CCN(c3ccccc3)CC2)ccc1F,x,0.07

# Four of these compounds in a different format.
molecule	AID504770	Ba CapD inh
c1ccc(CN2CCCC2)nc1	0.3	x
Cc1ccc(-[n+]2cc(NC(=O)/C(C#N)=C/c3ccccc3)on2)cc1	0.85	x
Nc1nonc1-c1noc(-c2ccc(COc3cc(Cl)ccc3Cl)cc2)n1	x	-0.01
O=C(Nc1cc(Cl)ccc1Cl)c1cc(S(=O)(=O)N2CCN(c3ccccc3)CC2)ccc1F	x	0.07

# Complete entries, quoted from the list:
# CCc1ccc(N=c2oc3c(C)ncc(CO)c3cc2C(N)=O)cc1 reads AID504770: 0.3; Ba CapD inh: 0.335
# Cc1ccc(SCc2nc3ccccc3[nH]2)cc1 reads AID504770: 1.4; Ba CapD inh: 2.87

# (next part)
SMILES,AID504770,Ba CapD inh
CCOC(=O)c1c(C)[nH]c(C)c1C(=O)COC(=O)c1cccc(S(=O)(=O)NC)c1,0.1,x
COCCn1cc(C(=O)N2CCC(C)CC2)c2c3ccccc3n(C)c2c1=O,-0.85,0.355
O=C1/C(=C\O)CCc2occc21,-0.1,-8.14*
O=C1c2ccccc2-c2ccc(-c3nc(-c4ccccc4)[nH]c3-c3ccccc3)cc21,x,-0.395
O=C(On1c(-c2ccccc2)nc2ccccc2c1=O)c1ccccc1Cl,x,0.005
Nc1nccnc1C(=O)OCc1cc(=O)oc2ccc3ccccc3c12,-0.1,x
COc1ccc(CNC(=O)OCCc2ccccc2F)c(OC)c1,x,-0.425
COC(=O)C1=C(C)N=C2SCC(=O)N2C1c1ccccc1 (stereo not given),-0.5,x
Cc1cc(C2=NNC(=NC3CC3)SC2)c(C)n1Cc1ccco1,-1.1,x
C=C1N(c2ccccc2)C(=O)OC1(C)C,-0.25,-0.015
Cc1nccn1CC(O)Cn1c2ccc(Br)cc2c2cc(Br)ccc21 (stereo not given),2.15,-0.005
Cc1ccc(C(=O)N(Cc2nc(-c3ccc(C)cc3)no2)C(C)C)cc1,-0.45,-0.635
O=C1CC(c2cccc(Br)c2)c2cc(Br)c3ccccc3c2N1 (stereo not given),x,0.47
CCCc1noc2c1C(=O)CC(C)(C)C2,0.45,x
Cc1ccc(S(=O)(=O)NC(=O)N2CC3(C)CC2CC(C)(C)C3)cc1 (stereo not given),-0.15,x
OCCN1CCN(Cc2ccc(F)cc2)CC1,x,0.275
C=CCNc1nc(Nc2ccc(Cl)cc2)nc(OC)n1,0.1,0.49
Cc1nc2ccccc2n1C(F)(F)C(F)F,-0.45,0.585
CN(CCC#N)C(=O)C1CCN(S(=O)(=O)c2cccs2)CC1,0.05,x
O=S(=O)(c1ccccc1)N1CCC(c2nnc(-c3ccc(F)cc3)o2)CC1,x,-0.28
Cc1c(C(=O)CSc2nnc(CN3CCOCC3)n2C)c2ccccc2n1C,0.25,x
COc1ccc(S(=O)(=O)N(CC(=O)Nc2c(C)n(C)n(-c3ccccc3)c2=O)c2ccc(Cl)cc2)cc1,x,-0.22
Nc1nc(N)nc(CSc2nncs2)n1,1,x
COc1cc(Br)cc2cc3c(=O)n(-c4ccccc4)nc-3oc12,1.1,-0.185
Cc1ccc2cc(NC(=O)c3cccs3)ccc2n1,x,0.115
C#CCn1c(CSc2ccccc2)nc2ccccc21,0.35,x
COC(=O)c1c(NC(=O)Cn2cnc([N+](=O)[O-])n2)sc2c1CCC(C)C2 (stereo not given),x,-0.89
O=C(c1ccccc1)N1CN(C2CCCCC2)Cc2c1sc1c2CCCC1,-0.9,-0.19
Cc1cc(NC(=O)CN2CCCCC2)n(-c2ccccc2)n1,-0.75,-0.38
COC(=O)c1ccc(N2CCOCC2)c(NC(C)=O)c1,-1,-0.28
Cc1cc(C)c2c(CC(=O)NC(C)C)coc2c1,0.35,x
CCOC1(c2cccs2)OC(c2cccs2)=C(c2cccs2)OC1c1cccs1 (stereo not given),-0.7,x
CCNC(=O)NCCSCc1cc2cccc3c2n(c1=O)CCC3,x,1.14

# 2 records picked at random from those above:
SMILES,AID504770,Ba CapD inh
O=C(CCCn1c(=O)c2cccn2c2ccccc21)NCC1CCCO1 (stereo not given),-0.5,0.44
Nc1c2c(nc3ccccc13)N(C1CCCCC1)CC2,0.8,-0.65

# Screening results from PubChem.

# Not all compounds are listed; rates above refer to the full screens.
